# TRPML1 inh = qHTS for Inhibitors of the Human Mucolipin Transient Receptor Potential 1 (TRPML1). Mucolipin-1 (Homo sapiens), Q9GZU1. TRPML1-inducible cells, Ca2+ dye fluorescence, FDSS; stronger effect = lower value; inhibition of EC80 agonist-evoked calcium signal. activity change, negative = inhibition, % (no concentration beside the values). actives 0.02% (n = 390,000). AID 624415, 2012; in the data active means activity change below about -50%; inconclusive means about -30% to -50%; inactive means above about -30%;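 note: stimulus is agonist 54-4 at its EC80 concentration; % is set by controls: 0 for no effect and ±100 for the full control effect; compound concentration not given in the record; the text of the record puts the active cut at -80%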
# Target sequence (Q9GZU1 whole entry, looked up): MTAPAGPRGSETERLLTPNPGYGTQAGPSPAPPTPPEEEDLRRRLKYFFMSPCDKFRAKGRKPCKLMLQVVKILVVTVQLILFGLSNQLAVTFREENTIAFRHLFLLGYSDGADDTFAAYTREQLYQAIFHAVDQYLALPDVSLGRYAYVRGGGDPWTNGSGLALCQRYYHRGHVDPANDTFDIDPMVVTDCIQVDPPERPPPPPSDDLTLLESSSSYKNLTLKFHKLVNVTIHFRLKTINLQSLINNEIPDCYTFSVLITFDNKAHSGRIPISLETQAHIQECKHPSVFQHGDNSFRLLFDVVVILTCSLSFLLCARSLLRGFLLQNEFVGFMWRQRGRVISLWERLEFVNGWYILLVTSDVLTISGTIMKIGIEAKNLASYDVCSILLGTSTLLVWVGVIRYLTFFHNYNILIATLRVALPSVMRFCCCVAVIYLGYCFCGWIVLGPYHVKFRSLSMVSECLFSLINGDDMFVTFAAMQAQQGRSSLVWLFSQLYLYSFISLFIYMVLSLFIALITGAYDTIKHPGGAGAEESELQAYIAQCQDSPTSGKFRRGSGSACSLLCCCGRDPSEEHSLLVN
#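 Calcium fluorescence in TRPML1-DL cells induced overnight with Tet: a 110 s read after compound pin addition, then a 110 s antagonist read after challenge with 54-4 at 4 uM final (EC80).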
# TRPML1 ag = qHTS for Agonists of the Human Mucolipin Transient Receptor Potential 1 (TRPML1). actives 0.12% (n = 410,000). activation, % (no concentration beside the values). TRPML1-expressing cells, Ca2+ dye fluorescence, FDSS; host cell line not named in the record; reference of the full effect not given here; in the data active = activation above about 50%; inconclusive = about 30% to 50%; inactive = below about 30%; note: 0% is about no effect; the text of the record puts the active cut at 80%
#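 Agonist activity was taken from a 110 s kinetic Ca2+ dye read on the FDSS after pinning compounds onto TRPML1-DL cells. The cells were seeded at 1,500/well with Tet inducer, incubated about 16 h, then dye-loaded at room temperature.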
# D2 PAM = Beta-Arrestin HTS for Positive Allosteric Modulators of the Human D2 Dopamine Receptor: Potentiators. D(2) dopamine receptor (Homo sapiens), P14416. DiscoveRx D2 beta-arrestin cells, luminescence, 90 min; 100% = 57 uM dopamine signal. potentiation, % (no concentration beside the values). actives 0.23% (n = 360,000); active = potentiation of 50% or more; inconclusive = 30% to 50%; inactive = 30% or less;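 note: compound concentration not given in the record; tested on top of an EC20 dose of dopamine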
# Target sequence (P14416 whole entry, looked up): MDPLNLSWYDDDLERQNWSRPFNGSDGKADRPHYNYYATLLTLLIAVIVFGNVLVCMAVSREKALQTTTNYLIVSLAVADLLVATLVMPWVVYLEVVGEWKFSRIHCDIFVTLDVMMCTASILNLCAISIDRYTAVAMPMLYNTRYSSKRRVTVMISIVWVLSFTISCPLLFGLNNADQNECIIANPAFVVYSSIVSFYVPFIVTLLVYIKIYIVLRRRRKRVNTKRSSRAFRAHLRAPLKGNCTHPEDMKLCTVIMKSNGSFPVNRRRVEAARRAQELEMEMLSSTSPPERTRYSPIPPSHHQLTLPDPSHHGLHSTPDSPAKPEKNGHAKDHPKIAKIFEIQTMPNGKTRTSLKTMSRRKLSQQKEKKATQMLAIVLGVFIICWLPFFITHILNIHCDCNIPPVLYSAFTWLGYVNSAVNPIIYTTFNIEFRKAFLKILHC
#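 D2 cells co-treated with compound plus 50 nM dopamine (EC20) for 90 min at 37 deg C to detect potentiation. Beta-arrestin recruitment was read as enzyme-fragment luminescence after 1 h at ambient temperature. Full response was set by 57 uM dopamine.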
# Six1-Eya2 blk = qHTS Assay for Inhibitors of the Six1/Eya2 Interaction. Homeobox protein SIX1 (Homo sapiens) + Protein phosphatase EYA2 (Homo sapiens), …. AlphaScreen GST-Six1/His-Eya2 binding, biochemical; stronger effect = lower value; control for the full effect not named in the record. activity change, % (no concentration beside the values). actives 0.56% (n = 360,000); in the data active = activity change below about -65%; inconclusive = about -30% to -65%; inactive = above about -30%; note: % is set by controls: 0 for no effect and ±100 for the full control effect; compound concentration not given in the record
#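 Six1/Eya2 binding was read as AlphaScreen signal after compounds were pinned into GST-Six1 plus His-tagged Eya2 (5X stock 250/500 nM) in pH 8.0 Tris/NaCl/TCEP buffer, beads added, then incubated 1 h, 37 C, dark.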
# TRPV1 potentiator = HTS Assay for Compounds that Act as Potentiators of the Vanilloid Receptor 1 | potentiation, % at 8.33 µM | Transient receptor potential cation channel subfamily V member 1 (Homo sapiens), Q8NER1 | TRPV1-expressing cells, Fluo-8 calcium influx, capsaicin EC20 potentiation; host cell line not named in the record; control for the full effect not named in the record | actives 0.02% (n = 320,000); active means potentiation above 80%; inconclusive means 30% to 80%; inactive means below 30%; note: 0% is about no effect
#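 Fluo-8 calcium influx in TRPV1-expressing cells, kinetic read (ex 480/em 520 nm). Compound added and read 3 min for agonist activity, followed by capsaicin at EC20 final and 2 min further read for enhancement.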
# CtBP-E1A inh = qHTS Assay for Inhibitors of the CtBP/E1A Interaction; AlphaScreen GST-E1A/His-CtBP binding, 1536-well; stronger effect = lower value; control for the full effect not named in the record; activity change, % (concentration not given with the values); actives 0.49% (n = 340,000); in the data active means activity change below about -65%; inconclusive means about -30% to -65%; inactive means above about -30%; note: % is set by controls: 0 for no effect and ±100 for the full control effect
#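 AlphaScreen with 125 nM GST-E1A and 125 nM His-CtBP (5X stocks) in Tris pH 8.0, 300 mM NaCl, BSA, Tween 20, TCEP. Compounds preincubated 2 h at 37 deg C, then glutathione donor/nickel acceptor beads added for 1 h at 37 deg C in dark.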
# An asterisk follows results filed as active; ? = inconclusive; . = no result given; & = joins results of further samples.
SMILES,TRPML1 inh,TRPML1 ag,D2 PAM,Six1-Eya2 blk,TRPV1 potentiator,CtBP-E1A inh
Cc1ccc(S(=O)(=O)N2CCN(C(=O)Cn3c(=O)cnc4ccccc43)CC2)cc1,-8,0.7,1,4,-2,4
C=CCNC(NC(=O)c1ccccc1)(C(=O)OCC)C(F)(F)F (stereo not given),2,1.2,-9,5,-4,-6
CCOC(=O)CSc1nc(C)c2cccc(C)c2n1,5,0.3,-9,3,.,5
Nc1nnc(SCC(=O)c2ccc3c(c2)NC(=O)CO3)s1,-6,-0.2,-7,-7,10,.
COc1ccc(CNC(=O)COC(=O)c2cc3ccccc3o2)cc1,27,0.2,-5,1,-38,5
COc1ccc(N2CCN(C(=O)c3nc4nc(C)cc(C)n4n3)CC2)cc1,-5,0.3,-10,0,-6,-1
CCN1CCN(Cc2ccc(NC(=O)Nc3cccs3)cc2)CC1,38,-0.2,-22,-7,2,-1
COc1ccc(N(C(=O)c2snc(C(N)=O)c2N)C(C(=O)NC2CCCCC2)c2ccc(F)cc2)c(OC)c1 (stereo not given),0,0.0,-6,5,2,7
COCCn1c(SCC(=O)Nc2cc(C)on2)nc2ccccc2c1=O,6,-0.4,-2,5,-22,.
C#CCn1c(O)c(N=NC(=O)CNC(=O)c2cccnc2)c2ccccc21,-11,-0.2,-43,-2,3,5
CCc1ccccc1NC(=O)CN1CCN(C(=O)C(C)NC(=O)c2ccc(Cl)cc2)CC1 (stereo not given),14,0.2,-8,0,-11,-2
Cc1ccc(OCC(=O)NC(C)c2ccc(Cl)c(Cl)c2)c([N+](=O)[O-])n1 (stereo not given),5,-0.5,-7,-17,-10,-16
Cc1nc(SCc2ccc([N+](=O)[O-])cc2)n[nH]1,4,0.1,-5,2,6,-14
CC(C)CCNC(=O)c1onc(CSc2ccccc2)c1C(=O)NCCC(C)C,2,2.7,-12,24,.,28
COc1ccccc1OCCCC(=O)Nc1ccc([N+](=O)[O-])cc1Br,-2,2.1,1,-6,6,-7
COc1cc(OC)cc(-c2sc3ccc(OC)cc3c2-c2ccc(OCCN3CCOCC3)cc2)c1,-13,1.3,.,-23,.,-29
O=C1CN(C(=O)CNCc2ccc(Cl)cc2)c2ccccc2N1,20,0.3,-15,7,?,-9
COC(=O)CSc1nc(C)cc(C(F)(F)F)c1C#N,50,1.5,4,36,17,20
CCCCNC(=O)/C=C/c1ccc(OC)c(Br)c1,10,-0.3,-24,4,-19,-1
COc1ccc(CNc2ncnc3cc(OC)c(OC)cc23)cc1,21,-0.8,-7,-24,-15,-11
Nc1cccc(CCc2ccncc2)c1,-7,-0.3,0,-6,-4,2
CN(CC(=O)NCCc1ccccc1)S(=O)(=O)c1cccs1,-13,-0.2,-5,-5,5,10
Cc1cc2c(NC(=O)Nc3ccc(C(F)(F)F)cc3)cccc2nn1,19,0.4,16,56,-3,0
CC(C)CNC(=S)NNC(=O)c1csc2ccccc12,-13,1.9,-24,-7,-2,-16
O=C(Nc1cccc(-c2ccc3nncn3n2)c1)C(F)(F)F,21,0.7,-5,-5,-12,.
COc1ccc(CN2CCNC(=O)C2CC(=O)NC2CCCCCC2)c(F)c1 (stereo not given),-10,0.5,-1,12,4,-3
N=c1n(CCN2CCCCC2)c2ccccc2n1CC(O)COc1ccccc1 (stereo not given),14&-2,-1.0&0.8,-36,-2,-1,-12
CCOC(=O)N1CCN(C(=O)c2cn(CC)c3ccc(S(=O)(=O)N4CCCC4)cc3c2=O)CC1,3,-0.3,0,2,-11,3
Cc1ccc(N2CCN(S(=O)(=O)c3ccc4oc(=O)ccc4c3)CC2)cc1Cl,12,-0.1,-4,-9,1,0
Cc1ccc(O)c(Nc2ncnc3ccccc23)c1,18,0.5,2,7,8,-11
COc1ccc(NC(=O)NCCc2c[nH]c3ccccc23)c(OC)c1,6,-0.2,-12,-8,-4,-9
Cn1c(N2CCN(C(=O)Nc3ccc(C(F)(F)F)cc3)CC2)nc2ccccc21,1,5.9,-16,-1,-5,-4
O=C(NC1CCN(C(=S)NCc2ccco2)CC1)c1ccc(F)cc1,13,0.0,-6,-1,1,0
Cc1ccccc1OCC(O)Cn1c(N2CCN(c3ccccc3)CC2)nc2c1c(=O)[nH]c(=O)n2C (stereo not given),-6,0.9,-5,0,11,1
O=c1c2cn(Cc3ccccc3)c3ccccc3c-2nn1Cc1ccc(F)cc1Cl,7,0.6,-5,-7,6,2
COC(=O)c1c(S(C)(=O)=O)nc(-c2ccccc2)[nH]c1=O,-13,1.5,-7,-1,-4,-1
CCOC(=O)c1nn2c(C(F)(F)F)cc(-c3ccc(OC)cc3)nc2c1Br,-4,-0.7,-13,-26,20,.
O=C(CNC(=O)c1ccc2ccccc2c1)OCC(=O)N1CCN(S(=O)(=O)c2ccc3ccccc3c2)CC1,17,-0.2,-7,-11,-4,-11
O=C(OCc1ccccc1)N(CCF)c1cn(Cc2ccccc2)c(=O)n(Cc2ccccc2)c1=O,-12,5.3,-4,10,.,-10
O=C(CCN1C(=O)/C(=C/c2ccccc2)SC1=S)N1CCCCCC1,26,0.8,-3,1,2,-4
C=CCNC(=O)c1ccc([N+](=O)[O-])c(Cl)c1,0,-0.6,-6,-4,-17,8
C=CCn1c(SCn2nnc3ccccc3c2=O)nnc1-c1ccc(Br)cc1,0,5.5,-6,-1,6,2
CC1(C)Cc2nc3sc4c(N(CCO)CCO)nnnc4c3cc2CO1,-6,-0.2,11,-7,-3,-17
COc1cccc(C2=NOC(C(=O)NCc3ccco3)C2)c1 (stereo not given),15,0.6,-12,8,-1,2
Cc1ccc(C(=O)NCC(=O)Nc2ccc3c(c2)OCCO3)cc1,3,-1.1,-15,3,8,0
CCn1c(SCC(=O)c2ccc(O)c(O)c2)nnc1-c1ccc(C)cc1,11,0.8,-8,-9,1,-1
O=C(CN1CCN(c2ccccc2)CC1)Nc1ccc2c(c1)OCCO2,19,-1.1,-35,-12,-15,0
COCCN1CCN(c2cc(-c3ccccc3)nc3cc(-c4cccc(F)c4)nn23)CC1,71,0.1,-21,21,-9,12

# Some of the entries so far, bar-delimited:
Molecule | TRPML1 inh | TRPML1 ag | D2 PAM | Six1-Eya2 blk | TRPV1 potentiator | CtBP-E1A inh
O=C(CCN1C(=O)/C(=C/c2ccccc2)SC1=S)N1CCCCCC1 | 26 | 0.8 | -3 | 1 | 2 | -4
C=CCNC(=O)c1ccc([N+](=O)[O-])c(Cl)c1 | 0 | -0.6 | -6 | -4 | -17 | 8
C=CCn1c(SCn2nnc3ccccc3c2=O)nnc1-c1ccc(Br)cc1 | 0 | 5.5 | -6 | -1 | 6 | 2
CC1(C)Cc2nc3sc4c(N(CCO)CCO)nnnc4c3cc2CO1 | -6 | -0.2 | 11 | -7 | -3 | -17
COc1cccc(C2=NOC(C(=O)NCc3ccco3)C2)c1 (stereo not given) | 15 | 0.6 | -12 | 8 | -1 | 2
Cc1ccc(C(=O)NCC(=O)Nc2ccc3c(c2)OCCO3)cc1 | 3 | -1.1 | -15 | 3 | 8 | 0

# Carrying on.
SMILES,TRPML1 inh,TRPML1 ag,D2 PAM,Six1-Eya2 blk,TRPV1 potentiator,CtBP-E1A inh
COc1ccc(NC(=O)c2sc(=O)n(Cc3ccc4ccccc4c3)c2C)cc1OC,.,-1.0,0,?,.,?
CC(=O)Nc1ccc(C(=O)NCC(=O)OCc2c(F)cccc2Cl)cc1,-5,0.9,-3,10,-7,3
CSc1ccccc1C(=O)C1CCCN(Cc2cnn(-c3ccccc3)c2)C1 (stereo not given),-13,2.4,-23,-16,-2,-15
COc1ccc(CNCCCn2cnc3c(OCc4ccccc4)ncnc32)cc1,-1,-1.0,-11,0,.,-2
CCOC(=O)N1CCN(C(=O)C2CCC(CNS(=O)(=O)c3ccc(Cl)cc3)CC2)CC1 (stereo not given),6,-0.4,-6,-1,-2,0
Fc1ccc(-c2nc3ccc(Br)cn3c2Cc2ccsc2)cc1,.,1.0,0,12,.,19
CCOC(=O)N1CCC(=NNC(=O)COc2cccc(C)c2)CC1,16,0.0,-4,-11,-15,-7
CCOC(=O)C1C(=O)C=C(c2ccc(OC)cc2)CC1c1ccco1 (stereo not given),-3,-1.3,-1,-11,-5,-4
CC1CC(C)(C)NC(=S)N1CCCC(=O)Nc1ccc(Cl)cc1 (stereo not given),-11,0.0,-9,-10,1,-3
CSc1ccccc1OCc1cc(C(=O)NC(C)CCn2cccn2)no1 (stereo not given),5,0.4,-21,5,2,0
Cc1nc(C(F)(F)F)ccc1C(=O)N1CCCC(C(=O)O)CC1 (stereo not given),.,-0.2,-1,2,.,11
CCCCNC(=O)Nc1ccccc1CC,-21,3.2,3,3,3,.
COc1ccc(-c2csc(C(C)(O)c3cccnc3)n2)cc1 (stereo not given),.,-0.8,-1,0,.,2
CC(C)Cn1c(N)cc(=O)n(C)c1=O,-14,0.3,0,7,6,9
CN(Cc1nccs1)C(=O)c1cc(COc2cccc3cnccc23)on1,29,0.3,-16,-1,-1,.
Nc1c(C(=O)Nc2ccccc2F)sc2nc(Cc3ccccc3)cc(C(F)(F)F)c12,-5,4.7,-8,17,7,16
COC(=O)CCC(=O)OC1(C)C(=O)C=C2C=C(C3CC3)N(C(CO)CO)C=C2C1=O (stereo not given),11,0.5,7,13,7,-24
CCOc1ccc(C(=O)N(Cc2ccc(OC)cc2)Cc2cc3cc(OC)ccc3[nH]c2=O)cc1,31,4.6,1,4,6,-1
Cn1c(=O)c2c(ncn2CC(=O)Nc2cccc(S(=O)(=O)Nc3ccccc3F)c2)n(C)c1=O,12,1.3,13,?,-8,-12
O=C(COC(=O)c1cccc(Br)c1)NCc1ccco1,-4,-0.4,-1,-20,.,0
CCOc1nc(NC(=O)NS(=O)(=O)c2cccc(Cl)c2)nc(-c2ccccc2)n1,-6,-0.3,-16,5,-2,-5
O=C(Nc1ccc2c(c1)C(=O)OC2)c1ccc(Cl)cc1,-12,0.5,-11,-15,0,6
CCOc1ccccc1CNC(=O)C1CCN(c2nc3ccccc3o2)CC1,-20,1.8,-1,7,-18,21
Cc1cc(C)n(-c2ccc(C(=O)OCC(=O)NCc3ccco3)cc2)n1,18,-0.6,-16,-2,23,2
Cc1ccc(CNC(=O)CCc2c(C)nc3ncnn3c2C)cc1,-1,0.2,0,2,17,14
O=C(Nc1ccc2ccccc2n1)c1ccc(Cl)cc1,?,0.0,-8,4,-26,-7
C/C(CC(=O)Nc1ccccc1F)=N\NC(=O)Cc1ccc(Cl)cc1,-5,-0.4,-7,8,-35,-1
O=C(NCCN1CCc2ccccc2C1)C1CCN(S(=O)(=O)N2CCC3(CC2)OCCO3)CC1,3,0.3,-7,1,-8,14

# From PubChem BioAssay

# This is a random part of the collection. About 0.95% of those tested had a hit in this group.
